# TRPV1 PAM = potentiators of human vanilloid receptor 1 (TRPV1) | hit rate 0.02% among 320,000 | Q8NER1 | TRPV1-expressing cells, Fluo-8 calcium influx, capsaicin EC20 potentiation; host cell line not named in the record; control for the full effect not named in the record | potentiation, % at 8.33 µM | AID 540277; active means potentiation above 80%; inconclusive means 30% to 80%; inactive means below 30%; note: 0% is about no effect
#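 TRPV1-expressing cells were cultured overnight at 35.5C and loaded with Fluo-8 calcium dye for 40 to 90 min at room temperature. After a 10 s baseline, compound was added and calcium influx was read kinetically for 3 min (ex 480/em 520 nm).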
# ClpP mod = qHTS Assay for Activators of ClpP; purified B. subtilis ClpP, FRET peptide cleavage, 20 min; Potency, µM (titrated, usually from 57.5 µM), for inactives: at the top dose activity change, negative = active; hit rate 1.9% among 340,000; active = well fitted falling curve with a large enough effect; inconclusive = small, poorly fitted or top-dose-only effect; inactive = no such curve, though single readings can be large or run the other way; note: potency is the fitted concentration of half-maximal effect; the source files actives as falling curves though it sought activators and does not explain the sign; nearly all actives have a fitted effect of over 65% in size; many hits overshoot -100%
# Target sequence (P80244 whole entry, looked up): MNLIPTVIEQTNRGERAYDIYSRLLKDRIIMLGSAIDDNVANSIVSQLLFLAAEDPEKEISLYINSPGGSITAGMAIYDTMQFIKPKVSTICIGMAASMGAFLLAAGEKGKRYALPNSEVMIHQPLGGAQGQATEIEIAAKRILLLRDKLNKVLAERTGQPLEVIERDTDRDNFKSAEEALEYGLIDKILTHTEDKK
#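 FRET quenching reversal measured ClpP activation: 10 microg/mL B. subtilis ClpP at pH 8 with the FRET-FV decapeptide, read at 430 nm after 320 nm excitation. The 20-min minus 0-min signal was scaled between DMSO/no-enzyme wells and ADEP (5.8 microM final).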
# D2 potentiator = potentiates the human D2 dopamine receptor allosterically. P14416. potentiation, % (test concentration not listed). hit rate 0.23% among 360,000. DiscoveRx D2 beta-arrestin cells, luminescence, 90 min; 100% = 57 uM dopamine signal; active = potentiation of 50% or more; inconclusive = 30% to 50%; inactive = 30% or less;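 note: compound concentration not given in the record; tested on top of an EC20 dose of dopamine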
# Target sequence (P14416 whole entry, looked up): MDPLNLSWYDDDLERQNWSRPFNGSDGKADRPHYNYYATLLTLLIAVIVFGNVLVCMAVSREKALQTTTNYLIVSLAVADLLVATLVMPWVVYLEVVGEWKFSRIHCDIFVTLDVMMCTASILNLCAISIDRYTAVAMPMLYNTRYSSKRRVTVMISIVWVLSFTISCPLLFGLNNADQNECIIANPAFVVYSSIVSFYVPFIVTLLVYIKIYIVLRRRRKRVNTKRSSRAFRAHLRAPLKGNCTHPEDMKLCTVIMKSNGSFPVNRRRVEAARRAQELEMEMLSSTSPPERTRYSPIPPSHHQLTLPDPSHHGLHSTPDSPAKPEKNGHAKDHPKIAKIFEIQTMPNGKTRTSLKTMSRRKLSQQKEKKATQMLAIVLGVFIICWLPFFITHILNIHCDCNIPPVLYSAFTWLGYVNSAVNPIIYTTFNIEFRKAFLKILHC
#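 PathHunter D2 cells, attached overnight at 37 deg C, received compound in DMSO plus dopamine at EC20 (50 nM final) for 90 min at 37 deg C. Beta-arrestin recruitment was read as luminescence after 1 h with detection reagent at ambient temperature.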
# Menin-MLL FL inh = inhibitors of human menin-MLL interaction, wild-type MLL peptide. Fluorescence polarization, fluorescein-MLL peptide displacement from menin. FP activity change, % at 61.4 µM. 290,000 tested, under 10 active. AID 1766; inconclusive = falling polarisation curve, or a change in total fluorescence; inactive = total fluorescence flat and polarisation flat or rising; no compound was filed as active; the % refers to the polarisation; negative = inhibition;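 note: % of control where 0% means no effect; inhibitors lower the polarisation; unlabelled MLL peptide was the positive control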
# gsp antagonist = antagonizes gsp, the McCune-Albright syndrome mutation; Potency, µM (highest dose often 76.9 µM), inactives show at the highest dose activity change, negative = inhibition, most hits filed as inhibitors; gsp-mutant cells, cAMP HTRF, 30 min; control for the full effect not named in the record; AID 624288; hit rate 0.4% among 340,000; active = falling curve of any shape with a large fitted effect; inconclusive = falling curve, mostly with a smaller effect; inactive = flat or rising curve; cell line not stated here;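 note: intracellular cAMP measured with PDE inhibitor Ro 20-1724 present during compound exposure; potency is the fitted concentration of half-maximal effect; % is set by controls: 0 for no effect and ±100 for the full control effect; nearly all actives have a fitted effect of over 65% in size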
#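 Cells, 2000/well, grown 16–24 h in DMEM 10% FBS with 0.5 mg/ml G418, then compounds plus […] (300 uM addition stock), 30 min at 37C. cAMP read by HTRF (cAMP-d2 and anti-cAMP antibody-K in lysis buffer) after 30 min RT.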
# Sfp inh = blocks B. subtilis Sfp PPTase activity. Biochemical Sfp PPTase activity, qHTS. Potency, µM, for the others: max response, negative = inhibition, hits mostly inhibitors. hit rate 3.5% among 310,000. AID 1490; active = well fitted inhibition curve with a large enough effect; inconclusive = small, poorly fitted or top-dose-only effect, or another doubt; inactive = no such curve, though single readings can be large or run the other way;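 note: the enzyme is Sfp with the accession as filed and its product quenches rhodamine fluorescence; potency is the fitted concentration of half-maximal effect; 0% = enzyme reaction without inhibitor and -100% = no enzyme wells; top concentration of the series not given in the record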
#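 With Hepes-Na pH 7.6 buffer containing 10 mM MgCl2, Sfp (15 nM) modified BHQ-2-YbbR (12.5 uM) using rhodamine-CoA (5 uM). Two reads 30 minutes apart at 525/598 nm yielded each well's rate.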
# gsp agonist = gsp mutant agonism; gsp mutant cells, cAMP HTRF, 30 min; control for the full effect not named in the record; Potency, µM (highest dose often 76.9 µM), for the others: at the highest dose activation (cAMP increase), hits mostly activators; hit rate 0.13% among 340,000; AID 624287; active = well fitted activation curve with a large enough effect; inconclusive = small, poorly fitted or top-dose-only effect, or another doubt; inactive = no such curve, though single readings can be large or run the other way; cell line not stated here;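 note: phosphodiesterase inhibitor Ro 20-1724 added with compounds to block cAMP breakdown; potency is the fitted concentration of half-maximal effect; nearly all actives have a fitted effect of over 60% in size; about a fifth of the inactives were tested at one dose only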
#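 Cells in DMEM/10% FBS with G418 were pretreated with compounds in DMSO plus […] (300 uM stock) for 30 min at 37C. cAMP was measured by HTRF (cAMP-d2 plus anti-cAMP antibody-K) after 30 min at room temperature.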
# Active calls of the source: *; ? = inconclusive; nt = not tested or not shown; & = joins results of further samples; [ ] = dose if it differs, or a comment.
SMILES,TRPV1 PAM,ClpP mod,D2 potentiator,Menin-MLL FL inh,gsp antagonist,Sfp inh,gsp agonist
COCCCn1c(SCC(=O)Nc2ccccc2F)nnc1-c1ccoc1C,15,nt,9,-3.3,1%,4%,17%[15.4 µM]
CC(=N\NC(=O)c1ccc([N+](=O)[O-])cc1)/C(=N/O)C(=O)Nc1ccccc1,5,0.6%,11,-6.5,-4%,0%,?
Cc1ccc(OCc2nnc(NC(=O)c3cccnc3)s2)cc1,-16,2.3%,-9,1.0,7.9µM*,16%,-1%
CCOc1ccc(OCCC(=O)OCC(=O)N2CCN(c3ccc(OC)cc3)CC2)cc1,3,nt,1,nt,2%,nt,-9%[15.4 µM]
COc1ccc(OC)c(C(=O)N2CCC(C(=O)c3ccc(F)cc3)CC2)c1,-4,-1.4%,2,4.6,4%,3%,-17%
Clc1ccc2c(c1)C(N1CCNCC1)Cc1ccccc1S2 (stereo not given),14,-8.4%,-38,3.4,16%,-16%,7%
COc1ccc(NS(=O)(=O)c2c(F)cccc2F)cc1S(=O)(=O)N1CCOCC1,6,-3.5%,26,nt,-7%,nt,16%
O=C(CC1C(=O)NCCN1Cc1cccc(Oc2ccccc2)c1)NCCc1ccccn1 (stereo not given),2,nt,-10,-19,-6%,3%,-4%[15.4 µM]
CC(C)OCCCNC(=O)c1cc(Sc2ccc(F)cc2)nc2ccccc12,-17,3.4%,5,5.3,16%,6%,5%
Cc1cc(C)nc(N2CCC(C(=O)Nc3ccc4c(c3)OCCO4)CC2)n1,6,nt,-1,-1.6,3%,3%,10%
CCOc1ccc(C(=O)N2CCc3ccccc32)cc1,3,0.3%,-14,1.7,-6%,-3%,-29%
Cc1cc(=O)oc(C)c1C(=O)OC(C(=O)c1ccccc1)c1ccccc1 (stereo not given),-5,0.6%,-17,11,-6%,-7%,10%
CCOC(=O)CCCCCC(=O)Nc1ccc2c(c1)C(=O)N([C@H](C)CO)C[C@H](C)[C@@H](CN(C)C(=O)Nc1ccc(OC)cc1)O2,nt,-1.4%,-9,nt,-2%,nt,26%
Cc1ccc(C)c(N2CCN(CCCNC(=O)CCn3c(=O)c4cccn4c4cccnc43)CC2)c1,4,-8.2%,-27,1.4,4%,5%,?
COC(=O)c1c(C)[nH]c(C(=O)COc2ccc3ccc(=O)oc3c2)c1C,10,2.8%,-2,nt,-5%,nt,-12%
C[C@@H](CN1CCC[C@H]1CN1C(N)=NC[C@@H]1Cc1ccccc1)N1C[C@@H](Cc2ccccc2)N(CCCC2CCCC2)C1=N,nt,-0.7%,-116,nt,3%,nt,nt
COC(=O)C1CCN(C(=O)c2cc(-c3ccco3)nc3ccccc23)CC1,nt,4.7%,11,nt,-8%,nt,11%
O=C(c1sc2ccccc2c1Cl)N(Cc1ccco1)C1CCS(=O)(=O)C1 (stereo not given),-13,-1.2%,-18,3.1,-6%,-17%,17%
C=C(C)CC(NCc1ccco1)c1ccc(OC)cc1 (stereo not given),2,0.9%,-20,2.2,3%[15.4 µM],3%,28%
CN=c1scc(-c2cccs2)n1/N=C/c1ccccc1O,5,1.0%,-34,-24,7%,-15%,-27%
CCN(CC(=O)Nc1ccc(OC)cc1)C(=O)Cc1cccs1,-3,nt,12,nt,8%,nt,-8%[15.4 µM]
Cc1cc(-c2ccccc2)oc(=O)c1NC(=O)c1ccccc1,0,-2.7%,-5,-2.1,2%,11%,10%[15.4 µM]
Cc1[nH]nc2c1C(C(C)c1ccccc1)C(C#N)=C(N)O2 (stereo not given),-1,nt,-4,-1.5,-8%,12%,4%[15.4 µM]
C=CCNC(=O)C1CCN(c2cc(C)nc(-c3ccccc3)n2)CC1,-18,nt,-7,2.4,1%,14%,3%

# Some entries already given, limited to Menin-MLL FL inh and ClpP mod:
Molecule	Menin-MLL FL inh	ClpP mod
COC(=O)C1CCN(C(=O)c2cc(-c3ccco3)nc3ccccc23)CC1	nt	4.7%
CN=c1scc(-c2cccs2)n1/N=C/c1ccccc1O	-24	1.0%

# The results go on.
SMILES,TRPV1 PAM,ClpP mod,D2 potentiator,Menin-MLL FL inh,gsp antagonist,Sfp inh,gsp agonist
O=C(CCCCCn1c(=S)[nH]c2ccsc2c1=O)NC1CCCCC1,4,0.9%,-4,-0.6,-7%,18%,-13%
CC(C)(C)C1=Nn2c(nnc2C2CCCCC2)SC1,6,-4.0%,-13,2.0,-3%,-55%,-23%
CCn1c(C)nc2cc(C(=O)NNC(=O)Nc3ccc(Cl)cc3)ccc21,0,nt,0,1.2,0%,17%,4%[15.4 µM]
CCO/C=C1/C(=O)N(C)C(=O)c2cc(OC)ccc21,0,0.6%,1,5.2,8%[15.4 µM],5%,-19%
O=C(Nc1ccccn1)c1sc2cccc(F)c2c1Cl,-1,nt,-15,-0.2,-76%,11%,21%[15.4 µM]
COC(=O)c1sccc1NC(=O)CSc1cc(Cl)ccc1Cl,2,-14%,-5,7.3,-2%,-2%,23%
COc1cc(OC)c(OC)cc1CNC1CCCCCC1,18,-0.5%,-4,-1.4,12%,?,-1%
CCOc1ccc(S(=O)(=O)N/N=C(\C)Cc2ccc(OC)cc2)cc1,-1,nt,-4,1.5,-23%,10%,17%[15.4 µM]
O=C(Nc1ccccc1)Nc1cc(OCC(F)(F)F)cc(OCC(F)(F)F)c1,-12,nt,-1,-0.2,32µM*,7%,-3%[15.4 µM]
O=C(c1cnc2n(c1=O)CCS2)N1CCN(c2ccccc2Cl)CC1,-6,nt,nt,-0.6,nt,-1%,nt
O=C(Nc1c(F)cc(F)cc1Br)c1cc(-c2ccc(O)cc2)on1,nt,1.1%,3,2.8,-33%,14%,10%
Cc1c(C(C)O)nnn1-c1nonc1N (stereo not given),6,-1.4%,-21,0.6,12%,16%,1%
COc1ccc(-c2csc(NC(=O)CSCc3c(C)noc3C)n2)c(OC)c1,-1,?,-2,nt,-16%,nt,9%[15.4 µM]
CCN(CC)S(=O)(=O)c1cccc(NC(=O)c2ccccc2Br)c1,4,nt,-4,0.4,-12%,?,3%[15.4 µM]
Cc1cc(Cl)ccc1NC(=O)COC(=O)CCNS(=O)(=O)c1ccccc1,3,1.9%,2,nt,-9%,nt,-10%
N#Cc1ccccc1CSc1nnc(-c2ccncc2)o1,27,-6.2%,-13,-1.0,-11%,4%,?
CC(C)CN(C(=O)C1CCCO1)c1c(N)n(CC(C)C)c(=O)[nH]c1=O (stereo not given),14,1.2%,?,nt,7%,nt,-3%
O=C(NN1C(=O)/C(=C/c2cccs2)SC1=S)c1cccnc1,-3,-1.2%,-7,?,-21%,-12%,-32%[inhibitor]
C/C(=N\NC(=O)c1ccc([N+](=O)[O-])cc1)c1cccc([N+](=O)[O-])c1,-22,nt,-9,-5.5,6%,7%,19%
Cc1cccc(C)c1NC(=O)CN(C)c1ccc(C(F)(F)F)cn1,-11,-8.4%,1,-1.5,-4%,-2%,-14%
O=C(CCN=C1NS(=O)(=O)c2ccccc21)OCc1cccc(Cl)c1,-8,-3.2%,-33,nt,-6%,nt,0%[15.4 µM]
CC1=CN2C(=N)/C(=C/c3ccc(Sc4ccc(C)cc4)o3)C(=O)N=C2S1,6,-2.5%,-18,?,2%,-13%,17%
O=C(c1ccc2ccccc2c1)C1CCCN(C(=O)c2cnccn2)C1 (stereo not given),16,-26%,-4,-0.5,-9%,-25%,?
O=S(=O)(NCCc1ccc(F)cc1)c1ccc(F)cc1Br,nt,0.4%,-3,nt,-3%,nt,nt
CCCc1nn2c(=O)cc(COc3ccc(NC(=O)c4ccco4)cc3)nc2s1,15,-0.8%,0,nt,19%,11%,?
Cn1c(=O)c2c(nc(CN3CCN(C(=O)c4ccco4)CC3)n2Cc2ccc(F)cc2)n(C)c1=O,29,-19%,-10,0.6,2%,-20%,14%
COc1cccc(-c2nc(-c3ccc(NC(=O)Cc4ccccc4OC)cc3)no2)c1,4,-3.8%,16,1.6,-8%,0%,?
CCN1CCc2c(sc(NC(=O)c3ccc(S(=O)(=O)N4CCOCC4)cc3)c2C(=O)OC)C1,1,-17%,-10,2.2,-6%,18%,-27%[15.4 µM]
CCCC(=O)O/N=C(\c1ccccc1)c1ccncc1,?,-1.3%,12,4.6,12%,13%,-23%
Nc1nc(N)c(N=Nc2ccc(C(=O)O)cc2)c(N)n1,21,-0.2%,3,-2.2,-8%,-4%,?
C=CCC(O)(CC=C)CNC(=O)c1ccc(OC)c(OC2CCN(C(C)=O)CC2)c1,1,1.5%,-3,-0.3,4%,-1%,-21%
CCOC(=O)c1ccc(NC(=O)N2CC(C)OC(C)C2)cc1 (stereo not given),-5&-7,-0.8%,-5,0.1&0.8,-1%,12%&12%,-23%
CCC(=O)N1CCc2cc(S(=O)(=O)CCC(=O)N3CCc4ccccc4C3)ccc21,-12,1.0%,-1,12,-15%,22%,25%
Cc1ccccc1OCc1nc2ccccc2c(=O)n1/N=C/c1c[nH]c2ccccc12,14,0.0%,-11,4.8,-25%,1%,8%[15.4 µM]
CCc1c(O)nc(SCC(=O)Nc2ccccc2OC)[nH]c1=O,-3,0.8%,-10,4.7,7%,16%,-3%
CC(C)CCC1(C)NC(=O)N(CC(=O)Nc2ccc3c(c2)OCCO3)C1=O (stereo not given),nt,1.2%,-4,nt,13%,nt,3%
CCOc1cccc(/C=C/c2ccc3ccccc3n2)c1OC(C)=O,11,4.3%,-3,4.5,?,?,?
Cn1nnnc1SCC(=O)Nc1ccccc1C(N)=O,21,-0.6%,3,-1.8,8%,22%,-6%
CCOc1cc2[nH]c(=S)n(Cc3ccc(C(=O)NCCCOC)cc3)c(=O)c2cc1OCC,-9,5.2%,1,-8.2,13%,18%,18%
Cc1c(C)c(C)c(C(=O)CCc2cccc(NC(=O)CCC(=O)O)c2)c(C)c1C,7,-0.8%,1,0.4,-6%,6%,14%
COC(=O)Cc1ccc(NC(=O)c2ccc3c(c2)C(=O)N(Cc2cccnc2)C3=O)cc1,-43,-2.8%,2,nt,-11%,1%,-19%
COc1cccc(NC(=O)COc2ccc(C(=S)N3CCN(C)CC3)cc2OC)c1,11,-3.8%,-3,?,-23%,13%,-24%
COc1ccc(S(=O)(=O)NC(CC(=O)NCc2ccc3c(c2)OCO3)c2ccco2)cc1 (stereo not given),10,0.3%,-17,-0.5,-8%,4%,-11%
